Compound activity deposited in PubChem by Fisher Drug Discovery Resource Center.
NPYLR7 ag: activates Aedes aegypti NPYLR7 receptor. HEK293T NPYLR7/Galpha15, GCaMP6s calcium fluorescence. activation, % at 10 µM. actives 0.15% (n = 270,000); in the data active = activation above about 40%;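 note: 0% = vehicle and 100% = reference agonist at the receptor; some compounds past the cut are filed as inactive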
NPYLR7 ag max-min: second read-out of NPYLR7 ag, no call of its own (marks repeat the call); activation, %; measured here: Max-Min RFU normalised activation; some inactives read as strong as hits;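 span of the calcium signal over five minutes; 0% = vehicle and 100% = native peptide agonist; compound fluorescence can raise it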
Active calls of the source: *; & = joins results of further samples.

Sample of the layout (6 entries):
SMILES | NPYLR7 ag | NPYLR7 ag max-min
CCOC(=O)CC(=O)Nc1cc(-c2onc3c2CCCC3)ccc1C | 1 | -4
Cc1[nH]nc2c1C(c1ccncc1)C(C#N)C(=N)O2 (stereo not drawn) | 0 | -9
O=C1/C(=C/c2ccncc2)Oc2cc(OS(=O)(=O)c3ccc(F)cc3)ccc21 | -2 | -5
CC(C(=O)Nc1ccccc1-c1ccccc1)N1CCCC1c1cccn1C (stereo not drawn) | 14 | 9
CN(C(=O)C1CC2C=CC1C2)c1ccccc1 (stereo not drawn) | 18 | 9
Cc1ccncc1NC(=O)C(=O)NC(C)c1ccc(OC(F)F)cc1 (stereo not drawn) | 14 | 9

Results, previewed entries included:
SMILES | NPYLR7 ag | NPYLR7 ag max-min
CCOC(=O)CC(=O)Nc1cc(-c2onc3c2CCCC3)ccc1C | 1 | -4
Cc1[nH]nc2c1C(c1ccncc1)C(C#N)C(=N)O2 (stereo not drawn) | 0 | -9
O=C1/C(=C/c2ccncc2)Oc2cc(OS(=O)(=O)c3ccc(F)cc3)ccc21 | -2 | -5
CC(C(=O)Nc1ccccc1-c1ccccc1)N1CCCC1c1cccn1C (stereo not drawn) | 14 | 9
CN(C(=O)C1CC2C=CC1C2)c1ccccc1 (stereo not drawn) | 18 | 9
Cc1ccncc1NC(=O)C(=O)NC(C)c1ccc(OC(F)F)cc1 (stereo not drawn) | 14 | 9
CC(=O)c1c(F)cccc1NC1CCN(S(=O)(=O)C2CC2)CC1 | 3 | 2
CCc1c(C(=O)NCC2CCCO2)cnn1-c1ccc(F)cc1 (stereo not drawn) | 1 | 1
O=C(NCCCn1ccnc1)c1cc(N2CCSCC2)nc2ccccc12 | 7 | 19
C=CCn1c(O)c(N=Nc2nc3ccccc3s2)c2ccccc21 | -5 | -12
CNc1nnc(SC(C)C(=O)N(CCC#N)c2ccccc2)s1 (stereo not drawn) | 0 | 0
CC(C)NC(=O)[C@@H]1C[C@@H](N)CN1C(=O)CCCc1c[nH]c2ccccc12 | 8 | 7
CCN(CC)C(=O)Oc1ccc2c(ccn2Cc2cc(OC)cc(OC)c2)c1-c1ccc(F)c(Cl)c1 | 9 | 0
O=C(COc1ccccc1)NC(NC(=S)Nc1ccccc1O)C(Cl)(Cl)Cl (stereo not drawn) | 2 | 0
Cc1ccc(-c2c(C)nn3c(NCCN4CCOCC4)cc(C)nc23)cc1 | 4 | 6
NC(=O)c1c(NC(=O)CSc2nnc(N)s2)sc2c1CCC2 | -1 | -8
CC(C)CC(C)NC(=O)C1CCCCC1C(=O)N1CCc2c([nH]c3ccccc23)C1 (stereo not drawn) | 0 | -6
COc1nc(N2CCCCC2)nc(-n2nnc(C#N)c2N)n1 | 1 | -2
Cc1c(C(=O)NCCC#N)cnc2c(-c3ccc(C(C)C)cc3)cnn12 | 10 | -7
CN(CCc1ccccn1)CC[C@@H]1CC[C@H](O)[C@@H](C(=O)N2CCCC2)O1 | -7 | -15

Whole records as entered above. Values in the order: NPYLR7 ag | NPYLR7 ag max-min
Record of `CCN(CC)C(=O)Oc1ccc2c(ccn2Cc2cc(OC)cc(OC)c2)c1-c1ccc(F)c(Cl)c1` → 9 | 0
Record of `CCc1c(C(=O)NCC2CCCO2)cnn1-c1ccc(F)cc1` (stereo not drawn) → 1 | 1
Record of `CC(C)NC(=O)[C@@H]1C[C@@H](N)CN1C(=O)CCCc1c[nH]c2ccccc12` → 8 | 7
Record of `O=C(COc1ccccc1)NC(NC(=S)Nc1ccccc1O)C(Cl)(Cl)Cl` (stereo not drawn) → 2 | 0

Carrying on:
SMILES | NPYLR7 ag | NPYLR7 ag max-min
COCC(=O)N1CCN(c2cc(Oc3cccc(Cl)c3)ncn2)CC1C (stereo not drawn) | 11 | 9
Cc1ccccc1NC(=O)CC(=O)N1CCOCC1CC(=O)O (stereo not drawn) | 0 | -2
OC[C@@H](O)[C@@H](O)[C@H](O)[C@@H](O)CO | -4 | 0
Cc1cc(C)n(C2CN(CC(O)c3ccc(S(C)(=O)=O)cc3)C2)n1 (stereo not drawn) | 5 | 13
O=C(CC(c1ccccc1)c1ccccc1F)N1CCN(c2ncccn2)CC1 (stereo not drawn) | 16 | 4
O=S(=O)(c1ccccc1Cl)N1CCOC(Cc2ccccc2)C1 (stereo not drawn) | 16 | 4
O=C(CNC1CC1)N(Cc1ccc(F)cc1)Cc1cccs1 | 2 | 0
CCOC(=O)N1CCC(n2c(-c3ccc(OC)cc3)csc2=Nc2cc(OC)cc(OC)c2)CC1 | -2 | -8
COCC(=O)Nc1ccc(-c2c(-c3ccc(OC)cc3OC)nn(-c3ccc(C)cc3C)c2OC(C)=O)cc1 | 5 | 10
CCc1ccc(C2c3cccn3CCCN2Cc2ccsc2)cc1 (stereo not drawn) | 2 | 12
CCc1c(C(=O)c2cc(C)cc(C)c2)[nH]c(=O)[nH]c1=O | 7 | 7
CC(CNC(=O)c1ccc(S(N)(=O)=O)c(F)c1)c1cccs1 (stereo not drawn) | -1 | -9
O=C(c1cn(CC2CCCCC2)nn1)N1CCN(C2CCS(=O)(=O)C2)CC1 (stereo not drawn) | 6 | 2
COC(=O)c1ccc2c(=O)n3cc(C(=O)c4ccccc4O)cc(Cl)c3nc2c1 | -10 | -9
CSCc1noc(CNc2nc(C(C)(C)C)nc3c2cnn3C)n1 | -3 | -11
COc1cccc(-n2nnc(C(=O)Nc3ccc4oc(=O)ccc4c3)c2C)c1 | -6 | -9
CC(C)Cn1c(=O)n(C)c(=O)c2[nH]cnc21 | -3&1 | -4&20
COc1ccc(-c2cc(=NC(C)C(=O)O)c3cc(C)ccc3o2)cc1 (stereo not drawn) | 1 | 0
O=C(CCc1ccc(OC(F)F)cc1)Nc1ccccc1I | 2 | 0
Cc1ccc(NC(=O)c2nnn(CC(=O)Nc3ccc(C)c(C)c3)c2N)cc1 | -6 | -12
CCN(CC)C(=O)Nc1cc(OC)c(OC)cc1C(=O)OC | -1 | 4
CC(=O)N[C@H](C(=O)O)C(C)C | 10 | 10
O=C(O)Cc1nn[nH]n1 | 10 | 17
CC1(C)O[C@@H]2C[C@@](OCc3ccc(C#N)cc3)(C(=O)NCCN3CCOCC3)CC(OCc3ccc(C(F)(F)F)cc3)[C@@H]2O1 (stereo partly drawn) | 5 | 14
Cc1ccc(S(=O)(=O)N(C)CCCC(=O)O)c(C)c1N(C)S(=O)(=O)c1ccccc1 | -1 | -2
Cc1ccc(OCC2CN(C(=O)c3cccc(C(C)C#N)c3)CCO2)cc1 (stereo not drawn) | 0 | 14
CCCCCCCC(=O)N(CCOC)CC(=O)N(CCc1ccc(OC)c(OC)c1)Cc1sccc1C | -5 | -4
CCC(C)N(CC(=O)N(Cc1ccc(F)cc1)Cc1cccs1)C(=O)c1cccc(Br)c1 (stereo not drawn) | -4 | 5
CS(=O)(=O)Nc1ccc(/C=C/C(=O)N2CCCC(C(F)(F)F)C2)cc1 (stereo not drawn) | 7 | 3
COc1ccc(NC(=O)c2ccc(CSc3nnc(Cc4ccccc4)n3-c3ccccc3C)cc2)cc1 | 15 | 32
COc1cccc(N2CC(CNC(=O)c3ccccc3C)OC2=O)c1 (stereo not drawn) | 5 | 3
CNc1cc(C(=O)N(C)C(C)c2cc3ccccc3[nH]2)ccn1 (stereo not drawn) | -6 | -11
CC(=O)Nc1cc(C)nn1-c1nc(-c2cccs2)cs1 | -9 | -14
CC(C)C(NC(=O)c1cc2cc(F)ccc2[nH]1)c1nccn1C (stereo not drawn) | -4 | -6
c1ccc(Oc2ncccc2CNC2CCSCC2)cc1 | -3 | -7
O=C(NCC1CCNCC1)Nc1nncs1 | 3 | 0
CC(C)c1csc(C(=O)N2CSCC2C(=O)NC(C)(C)C)n1 (stereo not drawn) | 6 | 4
Cc1oc(-c2ccc(-c3ccccc3)cc2)nc1CN(Cc1ccccn1)CC1CCCO1 (stereo not drawn) | -10 | -11
O=C(O)/C=C/c1nc(-c2ccc(Cl)cc2)n2ccccc12 | 0 | -3
Cc1nnc(CSc2ccc(Cl)cc2)n1C | 14 | 11
COCCc1nc(Cn2cnnc2)no1 | -10 | -10
COc1cc(C=NNC(=O)COc2ccc(Cl)cc2Cl)ccc1O | 3 | -2
O=C1C2=C(Nc3ccccc3SC2c2cccs2)c2ccccc21 (stereo not drawn) | 4 | 3
O=C(Nc1nnc(-c2cccc(Cl)c2)s1)C1CCCN1C(=O)CCc1ccccc1 (stereo not drawn) | -4 | -1
COc1ccccc1C(=O)Nc1c2c(nn1-c1cccc(C)c1C)CSC2 | -4 | -6
Cc1c(C(=O)O)sc2ccsc12 | 1 | -1
CN(C)S(=O)(=O)N1CCCN(S(=O)(=O)N(C)C)CC1 | 8 | 1
CCCn1c(C)cc(C=C(C#N)C(=O)OCC(=O)c2cc(C)n(-c3cc(C)on3)c2C)c1C | -4 | -7
Cc1nc2ccc(I)cn2c1C=NNc1ccc2ccccc2c1 | 6 | 2
COc1cccc(OCc2ccccc2)c1C(=O)Nc1ccc2ncsc2c1 | -29 | -34
CCCCN(Cc1cccn1Cc1cccc(C(F)(F)F)c1)C(=O)Nc1ccc(OCC)cc1 | 1 | 14
O=c1c2ccccc2sn1CN1CCN(S(=O)(=O)c2ccc3c(c2)CCC3)CC1 | -3 | -1
CCNc1nc(C)c(CN(C(C)=O)c2ccccc2)nc1C#N | -9 | -8
Cc1ccc(Br)cc1S(=O)(=O)NC1CCCC1(C)CO (stereo not drawn) | 3 | 3
O=C(NCc1ccccn1)c1ccc(SC(F)(F)F)cc1 | 22 | 9
COCCn1cc(NC(=O)Nc2cc(C)ccc2C)c2ccccc21 | 14 | 9
Cc1ccccc1C(=O)NC1CCN(c2ccccc2C(=O)NCc2ccc(F)cc2)CC1 | -10 | -10
CCOC(=O)C(CC)Sc1nc2c(c(=O)n1-c1ccc(C)cc1)SCC2 (stereo not drawn) | -1 | -3
CC(C)(C)NC(=O)CON=Cc1ccco1 | 15 | 11
CCOC(=O)C(C)n1nnc(C2CN(Cc3ccccc3)CCO2)n1 (stereo not drawn) | 5 | 3

Additional records follow.
SMILES | NPYLR7 ag | NPYLR7 ag max-min
Cc1nc(CN(C)Cc2cccc(-c3ncn[nH]3)c2)cs1 | -1 | -1
C=CC(C)(C)c1c2c(c(O)c3c(=O)c4ccc(O)c(O)c4oc13)C=CC(C)(C)O2 | 0 | 1
COc1cc(C=c2sc(=CC(=O)c3cc(OC)cc(OC)c3)[nH]c2=O)cc(OC)c1 | -3 | -8
CC1CN(Cc2ccccc2)c2nc3c(c(=O)n(CC(=O)OCc4ccccc4)c(=O)n3C)n2C1 (stereo not drawn) | 8 | 4
COc1ccc(-n2nc(C)c(-c3ccccc3)c2NC(=O)CN(CC(C)C)C(=O)Nc2ccccc2C(F)(F)F)cc1 | -1 | 4
COc1cc(OC)c(OC)cc1CNC(C)(C)c1ccccc1 | -3 | -2
Cc1cc(C(F)F)n2nc(C(=O)Nc3c(C)nn(Cc4c(Cl)cccc4Cl)c3C)nc2n1 | -5 | -13
O=C(O)CCCNC(=O)COc1ccccc1OCC(=O)NCCCC(=O)O | 2 | 0
CCOC(=O)c1c(C)n(C)c2c1cc(OC(=O)c1cccc(Cl)c1)c1ccccc12 | -3 | -7
Cc1ncc(CN2CCc3c([nH]c4ccccc34)C2C(C)(C)C)s1 (stereo not drawn) | 7&-1 | 5&-3
CCOC(=O)C1=C(O)/C(=C\c2ccc(O)cc2OC)SC1=Nc1ccccc1F | 8 | 11

Some of the compounds tested. The share of hits here may be higher or lower than overall.
